Bioassay records deposited in PubChem by National Center for Advancing Translational Sciences (NCATS).
VDR inh = inhibitors of human vitamin D receptor; VDR-SRC2-3 peptide fluorescence polarization, 2 h; Potency, µM, for inactives: max response, negative = inhibition, actives largely listed as inhibitors; 400,000 tested, 0.93% active; active = well fitted inhibition curve with a large enough effect; inconclusive = small, poorly fitted or top-dose-only effect, or another doubt; inactive = no such curve, though single readings can be large or run the other way; also: series mostly up to about 120 µM
Target sequence (P11473 whole entry, looked up): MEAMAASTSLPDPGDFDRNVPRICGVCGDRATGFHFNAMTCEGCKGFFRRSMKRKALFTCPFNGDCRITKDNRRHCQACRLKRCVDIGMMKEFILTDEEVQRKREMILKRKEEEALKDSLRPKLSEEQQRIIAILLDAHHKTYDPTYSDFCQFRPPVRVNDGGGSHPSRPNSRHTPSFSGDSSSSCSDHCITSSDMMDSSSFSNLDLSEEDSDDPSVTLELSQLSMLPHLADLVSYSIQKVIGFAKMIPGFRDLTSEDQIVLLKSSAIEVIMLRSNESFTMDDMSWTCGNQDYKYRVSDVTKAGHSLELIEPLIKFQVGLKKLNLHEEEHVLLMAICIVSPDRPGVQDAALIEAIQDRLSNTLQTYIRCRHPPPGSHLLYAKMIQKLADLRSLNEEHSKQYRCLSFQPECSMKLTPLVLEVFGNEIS
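FP read-out; VDR + SRC2-3 coactivator peptide; 23 nl compound by pintool; 2 h RT incubation; reagents held at 4 deg C, protected from light.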
An asterisk follows results filed as active; & = joins results of further samples. % is scaled to controls: 0 for no effect and ±100 for the full control effect; potency is read from the fitted curve at half-maximal effect. An excerpt; count on the stated rates, not on these rows.

The first 5 entries (preview)
Screening COc1cc(C#N)ccc1OCC(=O)Nc1cccc(S(=O)(=O)N2CCCC2)c1 returned VDR inh -1%.
For CCCc1cc(=O)oc2cc(C)c3c(C(C)(C)C)coc3c12 the results were VDR inh 13%.
For O=C1c2ccccc2[C@@H]2C[C@@H](O)[C@H](Nc3cccc(C(F)(F)F)c3)CCN12 the results were VDR inh -2%.
`CCOC(=O)c1cnc(SC2CC(=O)N(c3ccc(C)cc3)C2=O)nc1N` (stereo not given) gave VDR inh -4%.
`Cc1ccccc1C(=O)N1CCC(C(=O)Nc2cccc(F)c2)CC1` gave VDR inh 3%.

The listing, from the first entry:
Screening COc1cc(C#N)ccc1OCC(=O)Nc1cccc(S(=O)(=O)N2CCCC2)c1 returned VDR inh -1%.
For CCCc1cc(=O)oc2cc(C)c3c(C(C)(C)C)coc3c12 the results were VDR inh 13%.
For O=C1c2ccccc2[C@@H]2C[C@@H](O)[C@H](Nc3cccc(C(F)(F)F)c3)CCN12 the results were VDR inh -2%.
`CCOC(=O)c1cnc(SC2CC(=O)N(c3ccc(C)cc3)C2=O)nc1N` (stereo not given) gave VDR inh -4%.
`Cc1ccccc1C(=O)N1CCC(C(=O)Nc2cccc(F)c2)CC1` gave VDR inh 3%.
CCCc1ccc(OC(=O)c2sc3ncn(Cc4cccc(F)c4)c(=O)c3c2C)cc1 was read as VDR inh -3%.
CCCCc1cc(=O)oc2cc(C)cc(OC(C)C(=O)O)c12 (stereo not given) was read as VDR inh 1%.
O=C1NC2(CCc3ccccc32)C(=O)N1CCOc1ccc(Cl)cc1 (stereo not given) was read as VDR inh -6%.
For CCC(C)[C@H](N)c1cn([C@@H](CCCCN)C(=O)N2CCNCC2)nn1 (stereo not given in full) the results were VDR inh -7%.
`Cc1nc2c(-c3ccccc3)cnn2c(N)c1-c1ccccc1` gave VDR inh -8%.
`Cc1cc(=O)oc2cc(OC(C)C(=O)NCC3CCC(C(=O)O)CC3)ccc12` (stereo not given) gave VDR inh 14%.
Screening COc1cccc(/C=C2\SC(=S)N(NS(=O)(=O)c3ccccc3)C2=O)c1OC returned VDR inh -18%.
`COc1cccc(CN2CCCN(Cc3ccc(F)cc3)S2(=O)=O)c1` gave VDR inh 5%.
Screening O=C(NNC(=O)c1csc(N2CCOCC2)n1)c1cccnc1 returned VDR inh -2%.
CN(C)CCCN=C(NO)c1ccc(Cl)cc1Cl was read as VDR inh 14%.
For COc1ccc(/C=N\NC(=O)C2C(=O)NCC2c2ccccc2)cc1O (stereo not given) the results were VDR inh inconclusive.
For O=C(Nc1ccccc1C(F)(F)F)N1CCN(c2ccccn2)CC1 the results were VDR inh -11%.
`Cc1cc(C)n(-c2cccc(Cl)c2C#N)n1` gave VDR inh -7%.
For c1ccc(OCc2nnnn2-c2ccccc2)cc1 the results were VDR inh -9%.
CCOC(=O)/C(=C\c1ccccc1)C(=O)CCN1CCOCC1 was read as VDR inh inconclusive.
`CCOc1cc(C2C(C(=O)c3ccco3)=C(O)C(=O)N2CC2CCCO2)ccc1O` (stereo not given) gave VDR inh -17%.
For CSc1ccccc1NC(=O)c1cc(C)on1 the results were VDR inh 3%.
Screening O=C(CCCN1C(=O)c2ccccc2C1=O)OC1CSCC1NC(=O)c1ccccc1 (stereo not given) returned VDR inh 1%.
`CCN1C(=O)/C(=C/c2ccc(OCc3ccc(C(=O)O)cc3)c(Cl)c2)NC1=S` gave VDR inh inconclusive.
`Cc1cc2n(n1)C(c1ccccc1)CC(c1ccc(Br)cc1)=N2` (stereo not given) gave VDR inh -5%.
`O=C(Cc1ccccc1[N+](=O)[O-])NCCSCc1c(F)cccc1Cl` gave VDR inh 0%.
Screening N#Cc1nc(-c2ccc(OCc3ccccc3)cc2)oc1N1CCC(C(N)=O)CC1 returned VDR inh -8%&-16%.
For COc1ccc(Cc2nnc(NC(=O)Nc3ccccc3F)s2)cc1OC the results were VDR inh -4%.
Screening CCOC(=O)Cc1ccc(NC(=O)NC(C)c2c(-n3cccc3)sc(C)c2C)cc1 (stereo not given) returned VDR inh -3%.
Screening Cc1cccc(N2CCN(CC(=O)NCc3ccc(Cl)cc3)CC2)c1C returned VDR inh -10%.

As a short view, part of the list above:
For CSc1ccccc1NC(=O)c1cc(C)on1 the results were VDR inh 3%.
Screening O=C(CCCN1C(=O)c2ccccc2C1=O)OC1CSCC1NC(=O)c1ccccc1 (stereo not given) returned VDR inh 1%.
`CCN1C(=O)/C(=C/c2ccc(OCc3ccc(C(=O)O)cc3)c(Cl)c2)NC1=S` gave VDR inh inconclusive.

New compounds follow
For CNS(=O)(=O)c1cccc(C(=O)OCC(=O)N2CCN(C(=O)c3ccco3)CC2)c1 the results were VDR inh 1%.
`O=C(c1ccc(Br)cc1)N1CCN(S(=O)(=O)c2ccccc2)CC1` gave VDR inh -6%.
CN(C)S(=O)(=O)c1cccc(NC(=O)CN(CCO)CC(=O)Nc2cccc(S(=O)(=O)N(C)C)c2)c1 was read as VDR inh 1%.
Screening COc1ccc(S(=O)(=O)N2CCCC2C(=O)NCC(=O)Nc2cccc(Cl)c2C)cc1 (stereo not given) returned VDR inh -9%.
`CC(=O)Nc1ccc(C(=O)OCC(=O)Nc2ccccc2F)cc1` gave VDR inh 6%.
`O=C(Cc1ccccc1)Nc1ccc(NC(=O)C2CCCCC2)nc1` gave VDR inh -3%.
Screening COc1cccc(-c2nn(-c3ccccc3)cc2/C=C(\C#N)C(=O)NCCCn2ccnc2)c1 returned VDR inh -8%.
For CC(C)C[C@@]12C(=O)N(c3cccc(Br)c3)C(=O)N1[C@H](c1ccc(Cl)cc1)[C@@H]1C(=O)N(C3CCCCC3)C(=O)[C@@H]12 the results were VDR inh -16%.
Screening COc1ccc(-c2nnc(SCc3ccccc3F)o2)cc1 returned VDR inh -1%.
Screening C=CCN(C(=O)CCC(=O)Nc1cc(C)on1)C(C(=O)NC1CCCC1)c1ccc(CC)cc1 (stereo not given) returned VDR inh inconclusive.

In the list so far, 3 have bromine:
`Cc1cc2n(n1)C(c1ccccc1)CC(c1ccc(Br)cc1)=N2` (stereo not given) gave VDR inh -5%.
`O=C(c1ccc(Br)cc1)N1CCN(S(=O)(=O)c2ccccc2)CC1` gave VDR inh -6%.
For CC(C)C[C@@]12C(=O)N(c3cccc(Br)c3)C(=O)N1[C@H](c1ccc(Cl)cc1)[C@@H]1C(=O)N(C3CCCCC3)C(=O)[C@@H]12 the results were VDR inh -16%.

(further entries)
For N/C(=N\OC(=O)c1ccc(F)cc1)c1nonc1N the results were VDR inh 6%.
Screening Cc1ccc(Nc2cc(C(=O)NCCCN3CCOCC3)c3ccccc3n2)c(C)c1 returned VDR inh 7%.
`COc1ccc(OC)c(-c2cc(C(=O)N3CCc4ccccc4C3)no2)c1` gave VDR inh 3%.
`COc1ccc(/C(=C/Nc2cccc(Br)c2)C(C)=O)cc1OC` gave VDR inh 4%.
For CCOC(=O)c1c(C)[nH]c(NC(=O)NNC(=O)c2ccccc2Cl)c1C the results were VDR inh -7%.
CCOC(=O)N1CCN(CC(=O)n2c(C)c(C)c3ccccc32)CC1 was read as VDR inh 15%.
`Cc1[nH]nc2c1C(c1cn[nH]c1-c1ccc(F)cc1)C(C#N)=C(N)O2` (stereo not given) gave VDR inh 15%.
For O=C(Nc1cccc(Cl)c1N1CCOCC1)c1cccnc1Cl the results were VDR inh -4%.
For O=C1CC(c2cccc(Br)c2)C2=C(CCCC2=O)N1 (stereo not given) the results were VDR inh -10%.
For Cc1ccccc1C(=O)NCC(=O)NNC(=S)NC(=O)c1ccccc1 the results were VDR inh -8%.
`COc1ccc(NC(=O)CSc2ccc3nc(-c4ccccc4)cn3n2)c(OC)c1` gave VDR inh 15%.
For CCOc1ccc(CN2CCN(CCCn3cccn3)CC2CCO)cc1 (stereo not given) the results were VDR inh -3%.
For COc1ccc(CNC(=O)C2CCN(S(=O)(=O)c3cccc4nonc34)CC2)cc1 the results were VDR inh 2%.
`Cc1cccc(C(=O)NNC(=O)c2ccc3ccccc3c2)c1` gave VDR inh -4%.
Screening Cc1[nH]c2c(C)cccc2c1CCNC(=O)C1CCCCC1C(=O)OCC(F)(F)F (stereo not given) returned VDR inh -1%.
CC(CNC(=O)c1ccccc1Cl)NC(=O)c1ccccc1Cl (stereo not given) was read as VDR inh 19%.
For COC(=O)C(Cc1ccccc1)NC(=O)C(CC(C)C)NC(=O)OC(C)(C)C (stereo not given) the results were VDR inh 0%.
CCOP(=O)(c1ccccc1)C1(C#N)CC1 (stereo not given) was read as VDR inh -2%.
`CCCn1cc(SCC(=O)NCC2CCCO2)c2ccccc21` (stereo not given) gave VDR inh 3%.
`COc1cc(OC)cc(-n2nc(C(=O)NCCCN3CCOCC3)c3ccccc3c2=O)c1` gave VDR inh 1%.

Looked up by compound from above:
CC(CNC(=O)c1ccccc1Cl)NC(=O)c1ccccc1Cl (stereo not given) was read as VDR inh 19%.
For COC(=O)C(Cc1ccccc1)NC(=O)C(CC(C)C)NC(=O)OC(C)(C)C (stereo not given) the results were VDR inh 0%.
`CCCn1cc(SCC(=O)NCC2CCCO2)c2ccccc21` (stereo not given) gave VDR inh 3%.
For COc1ccc(CNC(=O)C2CCN(S(=O)(=O)c3cccc4nonc34)CC2)cc1 the results were VDR inh 2%.
For CCOc1ccc(CN2CCN(CCCn3cccn3)CC2CCO)cc1 (stereo not given) the results were VDR inh -3%.
`Cc1cccc(C(=O)NNC(=O)c2ccc3ccccc3c2)c1` gave VDR inh -4%.
`COc1cc(OC)cc(-n2nc(C(=O)NCCCN3CCOCC3)c3ccccc3c2=O)c1` gave VDR inh 1%.

The list continues.
O=C(Nc1ccccc1N1CCOCC1)c1cc(=O)[nH]c2ccccc12 was read as VDR inh -10%.
For CC(C)Oc1ccc(CNC(=O)c2cc3cccc4c3n2CC(C)S4)cc1 (stereo not given) the results were VDR inh 17%.
COc1cccc(C2c3[nH]c4ccccc4c3CCN2Cc2ncc[nH]2)c1 (stereo not given) was read as VDR inh -9%.
`O=C(NCc1ccccn1)Nc1cccc(F)c1` gave VDR inh 2%.
`O=P(c1ccccc1)(c1ccccc1)C(O)c1ccco1` (stereo not given) gave VDR inh -10%.
Screening O=C(NCN1C(=O)C2C3C=CC(C3)C2C1=O)Nc1nccs1 (stereo not given) returned VDR inh 11%.
`COc1ccc(CCNC(=O)CN(c2cc([N+](=O)[O-])ccc2OC)S(C)(=O)=O)cc1` gave VDR inh -1%.
Screening COc1ccc(C(=O)C2CCCN(C(=O)c3cccc(N(C)C)c3)C2)cc1OC (stereo not given) returned VDR inh -23%.
`O=C(c1csc2ccccc12)N1CCN(c2ccccn2)CC1` gave VDR inh -18%.
Screening COc1cc2nc(N(CCCN(C)C)C(=O)c3ccc(S(=O)(=O)N4CCc5ccccc5C4)cc3)sc2cc1OC returned VDR inh 3%.
For COc1ccc(COC(=O)Oc2ccc(CNC(C)=O)cc2OC)c([N+](=O)[O-])c1 the results were VDR inh 15%.
For CCCCNC(=O)c1cc2nc3c(c(C(F)(F)F)n2n1)CCc1ccccc1-3 the results were VDR inh -23%.
For CC(C)(C)NC(=O)NCc1ccco1 the results were VDR inh 6%.
`COc1cccc(-c2nc(N3CCCCC3C)c3ccccc3n2)c1O` (stereo not given) gave VDR inh 10%.
CC(C)(C)Nc1nc(OCC#N)nc(N2CCCCC2)n1 was read as VDR inh -15%.
`CC(C)CC(NC(=O)C1CCC(C)CC1)C(=O)NCc1cccnc1` (stereo not given) gave VDR inh 10%.
For COc1cc(/C=N/NC(=O)c2cc(-c3ccccc3)nc3ccccc23)ccc1O the results were VDR inh 6%.
Cn1nnc(NC(=O)C(c2ccccc2)c2ccccc2)n1 was read as VDR inh -6%.
Screening CCCCCCCCCCCCCCCCSCC(COC)COP(=O)([O-])OCC[N+](C)(C)C (stereo not given) returned VDR inh 0%.
`COc1ccc(CCNC(=O)c2cc(S(=O)(=O)N3CCOCC3)ccc2F)cc1` gave VDR inh -13%.
For CCN(c1ccccc1)S(=O)(=O)c1cc(NC(=O)C2CC2)ccc1Cl the results were VDR inh -5%.
C=CCn1c(O)c(C2=c3ccccc3=NC2=O)sc1=Nc1ccc(O)cc1 was read as VDR inh -4%.
O=c1[nH]cnc(O)c1C(c1ccc(F)cc1)c1c(O)nc[nH]c1=O was read as VDR inh -5%.
`Cc1occc1-c1nnc(SCC(=O)Nc2ccc(F)cc2)n1Cc1ccccc1` gave VDR inh 3%.
For Cc1c(Br)c([N+](=O)[O-])nn1CC(=O)N1CCN(Cc2ccccc2)CC1 the results were VDR inh 21%.
For N#CC1=C(N)N(c2ccccc2)C(=O)C1 the results were VDR inh 11%.
For O=C1CCC(C(=O)N2CCC(O)(c3ccccc3)CC2)CN1CCc1ccccc1 (stereo not given) the results were VDR inh -4%.
Screening CCOc1ccc(NC(=O)c2ccc3[nH]c(C)c(C)c3c2)cc1 returned VDR inh -2%.
Screening COc1ccc(CSc2nnc(N)s2)cc1F returned VDR inh 30%.
`O=C(Cn1c(=O)n(-c2ccc(Cl)cc2)c(=O)c2sc3ccccc3c21)NC1CCCCC1` gave VDR inh 6%.
COc1ccc(C(=O)NC2CC3CCCC(C2)N3Cc2ccccc2)cc1 (stereo not given) was read as VDR inh -5%.
Screening Cc1nn(Cc2ccccc2)c(N)c1-c1ccccc1 returned VDR inh 2%.
`Cc1[nH]c2ccccc2c1C(=O)COC(=O)C1CCC1` gave VDR inh 24%.
`O=C(NCc1ccccc1Cl)C1CCN(C(=O)c2ccco2)CC1` gave VDR inh 11%.
CCc1c(C)c2ccc(OCC(=O)NCC3CCC(C(=O)O)CC3)cc2oc1=O (stereo not given) was read as VDR inh -5%.
`C/C(=N/N=C1\SCC(=O)N1c1ccccc1)c1ccc(C)cc1` gave VDR inh inconclusive.
For COc1cccc2[nH]c3c(=O)n(CCCN4CCOCC4)cnc3c12 the results were VDR inh -11%.
`Cc1ccc(Cc2cc(C)n[nH]c2=O)cc1` gave VDR inh -19%.
